TRPML1 inh: inhibitors of human TRPML1 channel; Q9GZU1; activity change, negative = inhibition, % (test concentration not listed); AID 624415; TRPML1-inducible cells, Ca2+ dye fluorescence, FDSS; hits give low values; inhibition of EC80 agonist-evoked calcium signal; 0.02% of 390,000 active; in the data active means activity change below about -50%; inconclusive means about -30% to -50%; inactive means above about -30%;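 note: stimulus is agonist 54-4 at its EC80 concentration; % is set by controls: 0 for no effect and ±100 for the full control effect; compound concentration not given in the record; the text of the record puts the active cut at -80%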
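Calcium fluorescence in TRPML1-DL cells induced overnight with Tet: a 110 s read after compound pin addition, then a 110 s antagonist read after challenge with 54-4 at 4 uM final (EC80).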
PINK1 expr mod: changes PINK1 expression; PINK1 immunofluorescence, high-content cytometry, 24 h; Potency, µM (top dose mostly 76.6 µM), for the others: at the highest dose activation (PINK1 increase), hits mostly activators; 0.2% of 410,000 active; active = well fitted activation curve with a large enough effect; inconclusive = small, poorly fitted or top-dose-only effect; inactive = flat fitted curve, though single readings scatter; cell line not stated here;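 note: potency is the fitted concentration of half-maximal effect; % of control where 0% means no effect; nearly all actives have a fitted effect of over 65% in size; a mitochondrial uncoupler was the plate control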
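A stable cell line was treated with compounds at 5 concentrations for 24 hours, with CCCP as control. PINK1 levels and mitochondrial localization were measured by immunofluorescence with mitochondrial, cell and nuclear markers after fixation, read by laser-scanning cytometry.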
Menin MLL FP FL: inhibitors of human menin-MLL interaction, wild-type MLL peptide. FP activity change, % at 61.4 µM. AID 1766. Fluorescence polarization, fluorescein-MLL peptide displacement from menin. 290,000 tested, under 10 active; inconclusive = falling polarisation curve, or a change in total fluorescence; inactive = total fluorescence flat and polarisation flat or rising; no compound was filed as active; the % refers to the polarisation; negative = inhibition;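 note: % of control where 0% means no effect; inhibitors lower the polarisation; unlabelled MLL peptide was the positive control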
Sfp PPTase inh: Sfp phosphopantetheinyl transferase inhibition | Biochemical Sfp PPTase activity, qHTS | AID 1490 | 3.5% of 310,000 active | Q9F4F7 | Potency, µM, inactives show max response, negative = inhibition, actives largely listed as inhibitors; active = well fitted inhibition curve with a large enough effect; inconclusive = small, poorly fitted or top-dose-only effect, or another doubt; inactive = no such curve, though single readings can be large or run the other way;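 note: the enzyme is Sfp with the accession as filed and its product quenches rhodamine fluorescence; potency is the fitted concentration of half-maximal effect; 0% = enzyme reaction without inhibitor and -100% = no enzyme wells; top concentration of the series not given in the record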
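Fluorescence-quenching assay: 15 nM Sfp-PPTase preincubated 15 min at room temperature with compound, then 5 uM rhodamine-CoA and 12.5 uM BHQ-2-labelled YbbR peptide added. Fluorescence (ex 525/em 598 nm) read at start and after 30 min; difference gives rate.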
TRPML1 agonist: human mucolipin-1 channel agonism; Q9GZU1; TRPML1-expressing cells, Ca2+ dye fluorescence, FDSS; host cell line not named in the record; reference of the full effect not given here; activation, % (concentration not given with the values); 0.12% of 410,000 active; AID 624414; in the data active = activation above about 50%; inconclusive = about 30% to 50%; inactive = below about 30%; note: 0% is about no effect; the text of the record puts the active cut at 80%
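Calcium fluorescence on an FDSS kinetic reader gave the read-out. Tet-induced TRPML1-DL cells were plated overnight, dye-loaded (Ca8 with quencher, 45-90 min, room temperature, dark), then read 110 s after compound addition, and again 110 s after 4uM final 54-4 (EC80).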
TRPV1 potentiator: human TRPV1 potentiation; Q8NER1; AID 540277; potentiation, % at 8.33 µM; 0.02% of 320,000 active; TRPV1-expressing cells, Fluo-8 calcium influx, capsaicin EC20 potentiation; host cell line not named in the record; control for the full effect not named in the record; active means potentiation above 80%; inconclusive means 30% to 80%; inactive means below 30%; note: 0% is about no effect
Target sequence (Q8NER1 whole entry, looked up): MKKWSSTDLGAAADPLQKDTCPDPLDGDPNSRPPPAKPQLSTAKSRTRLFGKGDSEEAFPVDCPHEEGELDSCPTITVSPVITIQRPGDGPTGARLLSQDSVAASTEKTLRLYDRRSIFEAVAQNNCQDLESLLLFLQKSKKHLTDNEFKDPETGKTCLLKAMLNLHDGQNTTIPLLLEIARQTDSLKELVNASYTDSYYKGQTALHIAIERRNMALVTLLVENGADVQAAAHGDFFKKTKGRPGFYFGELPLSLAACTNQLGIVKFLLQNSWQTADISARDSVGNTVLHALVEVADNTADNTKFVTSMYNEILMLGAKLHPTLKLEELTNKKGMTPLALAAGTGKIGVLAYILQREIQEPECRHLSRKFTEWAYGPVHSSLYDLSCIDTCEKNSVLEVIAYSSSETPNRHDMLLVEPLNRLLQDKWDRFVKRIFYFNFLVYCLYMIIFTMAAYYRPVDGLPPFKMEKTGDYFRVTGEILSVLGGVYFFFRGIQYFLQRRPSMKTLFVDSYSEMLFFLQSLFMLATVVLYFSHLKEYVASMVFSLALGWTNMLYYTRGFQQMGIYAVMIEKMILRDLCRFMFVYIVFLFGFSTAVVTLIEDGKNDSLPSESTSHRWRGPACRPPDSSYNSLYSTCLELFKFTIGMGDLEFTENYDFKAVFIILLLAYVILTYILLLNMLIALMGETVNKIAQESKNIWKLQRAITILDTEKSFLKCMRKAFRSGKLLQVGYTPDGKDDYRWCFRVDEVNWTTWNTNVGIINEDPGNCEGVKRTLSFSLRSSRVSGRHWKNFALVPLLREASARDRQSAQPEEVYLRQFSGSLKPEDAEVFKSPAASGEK
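TRPV1-expressing cells were cultured overnight at 35.5C and loaded with Fluo-8 calcium dye for 40 to 90 min at room temperature. After a 10 s baseline, compound was added and calcium influx was read kinetically for 3 min (ex 480/em 520 nm).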
ClpP mod: qHTS Assay for Activators of ClpP; ATP-dependent Clp protease proteolytic subunit (Bacillus subtilis (strain 168)), P80244; purified B. subtilis ClpP, FRET peptide cleavage, 20 min; Potency, µM (doses to about 57.5 µM), without a hit: at the top dose activity change, negative = active; 1.9% of 340,000 active; AID 651965, 2013; active = well fitted falling curve with a large enough effect; inconclusive = small, poorly fitted or top-dose-only effect; inactive = no such curve, though single readings can be large or run the other way; note: potency is the fitted concentration of half-maximal effect; the source files actives as falling curves though it sought activators and does not explain the sign; nearly all actives have a fitted effect of over 65% in size; many hits overshoot -100%
Target sequence (P80244 whole entry, looked up): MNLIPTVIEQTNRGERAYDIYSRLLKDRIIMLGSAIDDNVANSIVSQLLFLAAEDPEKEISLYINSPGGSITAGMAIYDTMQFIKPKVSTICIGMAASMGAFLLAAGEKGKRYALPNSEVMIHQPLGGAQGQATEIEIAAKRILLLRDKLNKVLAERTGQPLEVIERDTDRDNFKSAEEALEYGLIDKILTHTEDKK
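FRET quenching reversal measured ClpP activation: 10 microg/mL B. subtilis ClpP at pH 8 with the FRET-FV decapeptide, read at 430 nm after 320 nm excitation. The 20-min minus 0-min signal was scaled between DMSO/no-enzyme wells and ADEP (5.8 microM final).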
* hit, by the source's call; ? = inconclusive; . = no result given; [ ] = another dose, or the depositor's remark.

SMILES	TRPML1 inh	PINK1 expr mod	Menin MLL FP FL	Sfp PPTase inh	TRPML1 agonist	TRPV1 potentiator	ClpP mod
CCCSc1nc2cc(C)c(C)cc2n1CC(O)CO (configuration not stated)	3.8	1.0%	-2.4	8.7%	0.5	2.4	-1.8%
CC(C)(NC(=O)NC(CO)c1ccccc1)c1cccc(C(C)(C)NC(=O)NC(CO)c2ccccc2)c1 (configuration not stated)	10.2	0.0%	.	.	0.1	?	-2.1%
C[C@@H]1CN([C@H](C)CO)C(=O)CCCn2nncc2CO[C@H]1CN(C)S(=O)(=O)c1ccc(F)cc1	-12.6	0.9%	.	.	-0.5	.	-7.7%
Cc1sc2ncnc(NCC(c3ccco3)N(C)C)c2c1C (configuration not stated)	11.2	-2.8%	2.1	-5.5%	-0.5	-9.1	0.0%
CCOCC(=O)Nc1cc([N+](=O)[O-])ccc1OC	7.0	0.2%	-1.5	21.0%	0.1	3.2	.
O=C(Nc1cccc(S(=O)(=O)N2CCCCC2)c1)C1CCN(C(=O)c2ccc(Cl)cc2)CC1	6.9	2.5%	.	.	0.9	-1.7	1.6%
COc1cccc(NC(=O)Cn2c(=O)n(-c3ccccc3)c(=O)c3ccc(C(=O)NCc4ccc5c(c4)OCO5)cc32)c1	-12.0	-4.6%	.	.	1.8	.	0.4%
CN=C(Nc1cc(C)nn1-c1ccccc1)c1ccccc1F	18.1	-1.0%[38.3 µM]	1.1	19.3%	2.2	-4.4	0.7%
O=C(COC(=O)COc1cccc(Br)c1)Nc1c(Cl)cccc1Cl	0.4	1.5%	2.7	2.9%	1.9	2.2	.
Cc1noc(C)c1CSCC(=O)NC1=NCCS1	86.4	12.3%[38.3 µM]	5.8	6.4%	-0.9	?	1.4%

Three compounds from above, arranged by SMILES length, high to low.
SMILES	TRPML1 inh	PINK1 expr mod	Menin MLL FP FL	Sfp PPTase inh	TRPML1 agonist	TRPV1 potentiator	ClpP mod
CC(C)(NC(=O)NC(CO)c1ccccc1)c1cccc(C(C)(C)NC(=O)NC(CO)c2ccccc2)c1 (configuration not stated)	10.2	0.0%	.	.	0.1	?	-2.1%
CN=C(Nc1cc(C)nn1-c1ccccc1)c1ccccc1F	18.1	-1.0%[38.3 µM]	1.1	19.3%	2.2	-4.4	0.7%
Cc1sc2ncnc(NCC(c3ccco3)N(C)C)c2c1C (configuration not stated)	11.2	-2.8%	2.1	-5.5%	-0.5	-9.1	0.0%

(list continues)
SMILES	TRPML1 inh	PINK1 expr mod	Menin MLL FP FL	Sfp PPTase inh	TRPML1 agonist	TRPV1 potentiator	ClpP mod
Cc1ccc(N2C(=O)c3ccccc3C2=O)cc1Cl	-23.2	-0.3%	-0.2	11.9%	2.1	?	-2.3%
CC(=O)NNC(=S)NC(=O)c1ccccc1	0.4	0.0%	2.0	17.8µM*	-0.7	-2.2	.
COc1ccc(Cn2nnc3c(=O)[nH]c(C4CCN(S(=O)(=O)c5ccc(C)cc5)CC4)nc32)cc1	1.4	-0.4%	.	-9.2%	0.9	2.1	3.9%
Cc1ncc([N+](=O)[O-])n1CCOC(=O)Nc1ccc(Cl)c(Cl)c1	24.2	3.0%	2.1	?	1.4	-9.7	-0.4%
CN(CC(=O)Nc1cccc(F)c1)CC(=O)N(C)c1c(N)n(Cc2ccccc2)c(=O)[nH]c1=O	-5.7	2.3%	.	.	1.7	.	-1.0%
O=c1c2c3c(sc2nc(N2CCNCC2)n1CCc1ccccc1)CCCCC3	1.9	2.1%	5.2	-6.6%	-0.3	23.9	-5.1%
Cc1ccc(S(=O)(=O)NNC(=O)Nc2ccc(C)c(C)c2)c(C)c1	13.7	3.4%	.	14.6%	0.4	2.5	0.5%
O=C(c1c(F)cccc1F)N1CCC(O)(c2cccnc2)CC1	-0.4	2.3%	0.6	22.0%	-0.7	26.6	-0.3%
CCOC(=O)c1ccc(N2C(=O)c3n[nH]c(C)c3C2c2ccc(O)c(OC)c2)cc1 (configuration not stated)	5.1	0.5%	.	.	0.0	.	1.4%
CCOc1ccc(CCNC(=O)c2ccc(CS(=O)(=O)Cc3ccccc3Cl)o2)cc1OCC	12.4	0.6%	.	.	3.1	.	-2.4%
COc1cc(CNc2ccccc2SC)ccc1O	18.7	0.4%[38.3 µM]	-2.2	79.4µM*	1.5	22.3	?
N#Cc1cccc(NC(=O)Cn2cnc(S(=O)(=O)N3CCc4ccccc43)c2)c1	-5.5	-0.7%	.	2.9%	0.1	4.2	1.0%
COc1cc(/C=N/NC(=O)COc2c(C)cc([N+](=O)[O-])cc2C)ccc1OC(=O)c1ccccc1	5.2	10.2%	8.2	9.5%	-1.6	-6.8	-0.2%
Nc1nc(-c2cccnc2)nn1C(=O)c1ccccc1Cl	-8.3	-0.5%	-3.1	4.0%	0.0	3.8	-2.6%
COCC(C)n1c(SCC(=O)NNC(=O)c2ccccc2)nc2ccccc2c1=O (configuration not stated)	10.9	-0.4%	11.0	-17.4%	-0.2	5.1	-3.5%
O=C(Nc1ccc(F)cc1F)c1cc(-c2ccco2)on1	-9.7	1.1%[38.3 µM]	8.2	-8.7%	-0.1	11.2	-2.9%
CC(=O)c1cccc(S(=O)(=O)N2CCC(C(=O)O)(c3ccccc3)CC2)c1	-14.1	-2.0%	.	19.6%	0.1	5.4	.
Cc1cc(C(F)(F)F)nc(SCCN2CCCCC2)c1C#N	14.6	5.2%	1.3	10.1%	0.1	-5.0	1.0%
COc1ccccc1N=C1SC(C)CN1C(=O)C1CCC1 (configuration not stated)	.	.	4.8	-2.2%	.	19.9	.
CC(NC(=O)c1cnc2n(c1=O)CCS2)c1ccccc1 (configuration not stated)	-9.2	-1.8%	-0.9	9.4%	2.4	0.9	-13.9%
Cc1cc(N2CCCCC2)ccc1[N+](=O)[O-]	-6.2	0.3%	-0.7	-9.2%	-0.8	2.4	0.5%
CCC(C)Sc1ccc([C@H]2N[C@@](Cc3ccccc3)(C(=O)OC)[C@H]3C(=O)N(CC)C(=O)[C@@H]23)cc1OC (some centres not stated)	-7.2	1.9%	.	.	0.9	?	-9.2%
O=C(CSc1ccsc1[N+](=O)[O-])Nc1cccc(F)c1	3.6	15.9%	1.8	-13.8%	0.3	2.4	-0.1%
C[C@H]1COC(=O)[C@@H](CC(=O)OC(C)(C)C)C/C=C\C[C@@H](CC(=O)N[C@H](CO)Cc2ccccc2)C(=O)N1	4.4	0.8%	.	.	-0.8	.	-0.8%
COc1ccc(CCNC(=O)CSc2nnc3ccccn23)cc1	-6.5	0.4%	0.9	16.4%	0.3	-7.4	.
Cc1ccc(C(=O)COC(=O)CNC(=O)c2ccc(N3C(=O)c4ccccc4C3=O)cc2)cc1C	16.0	7.3%	1.3	-5.0%	1.7	12.0	.
Cc1sc(NC(=O)c2sc3nc4c(C)cccc4cc3c2N)c(C#N)c1C	3.5	8.2%	?	?	11.2	?	-1.1%
O=C(NCCN1CCOCC1)Nc1cccc(Cl)c1	22.9	1.4%	-0.1	17.2%	0.1	21.4	-0.9%
CS(=O)(=O)c1ccc(Cl)c(NC(=O)CN2CCCC2c2ccc3c(c2)OCCCO3)c1 (configuration not stated)	4.8	0.9%	.	.	-1.6	-18.1	0.9%
Cc1nonc1NC(=O)c1oc2ccccc2c1C	1.2	-2.1%	.	-2.3%	0.3	-12.8	-4.2%
Cc1nn(C)c(C)c1C1C(C#N)=C(N)Oc2n[nH]c(C)c21 (configuration not stated)	-17.4	6.1%	3.3	4.0%	1.4	0.2	-1.4%
CC1Cc2ccccc2N1CC(=O)Nc1cc(S(=O)(=O)N2CCOCC2)ccc1Cl (configuration not stated)	74.0	0.3%	.	.	0.4	.	0.5%
NS(=O)(=O)c1ccc(CCNC(=O)C2CCN(S(=O)(=O)c3cnc[nH]3)CC2)cc1	-17.4	-0.4%[38.3 µM]	3.9	17.0%	-0.4	-7.6	0.3%
COc1ccc(/C=N/NC(=O)C[n+]2ccccc2)c(OC)c1OC	23.5	0.0%	1.9	?	-0.1	-3.6	1.6%
CN1CCN(CCc2nc3cc(NC(=O)COc4ccc([N+](=O)[O-])cc4)ccc3n2C)CC1	5.5	0.3%	-1.0	8.9%	0.5	1.0	-0.2%
COc1ccc(-c2ccc(SCC(=O)NCc3ccco3)nn2)cc1OC	-5.2	-0.4%	-2.4	50.1µM*	0.1	0.5	-1.8%
Cc1nc2cc(NC(=O)c3ccc(S(=O)(=O)N(C)c4ccccc4)cc3)ccc2o1	5.1	4.6%	-7.1	3.6%	-0.4	-8.5	.
CC(=O)Nc1cccc(NC(=O)c2oc3ccccc3c2C)c1	.	.	2.5	2.2%	.	6.5	.
CC(=O)Nc1cc(C(=O)N2CCc3ccccc3C2)ccc1Sc1ccc(C)cc1	-12.0	0.3%	11.9	-20.5%	4.7	?	-2.4%
CCN(C(=O)CSc1nnc(C)n2c1cc1occc12)c1ccccc1	16.1	-0.5%	.	.	1.2	.	-3.1%
O=C1C(c2ccccc2)C(c2ccccc2)NC(c2ccccc2)C1c1ccccc1 (configuration not stated)	-20.4	16.9%	2.6	17.1%	?	-22.3	0.4%
COc1ccc(C(=O)Nc2ccccc2-c2nnn(CC(=O)NCc3ccco3)n2)cc1	-0.7	6.8%	0.3	2.0%	-0.6	20.6	36.4%
CCOC(=O)C/C(C)=N/NC(=O)CN(c1ccc(Br)cc1)S(=O)(=O)c1ccccc1	10.6	0.1%	1.4	-11.7%	1.3	23.0	0.8%
CCNC(=O)NC(=O)C(C)OC(=O)C1CCN(S(=O)(=O)c2ccc(C)c(C)c2)CC1 (configuration not stated)	-8.9	7.9%	4.4	10.3%	0.8	1.9	1.0%
CC1(C(=O)NCc2ccccc2Br)CCN1C(=O)CCc1ccc(Cl)cc1Cl (configuration not stated)	.	1.0%	.	.	-0.3	.	2.6%
C=CCOc1ccc(/C=C/C(=O)OCC(=O)Nc2c(C)n(C)n(-c3ccccc3)c2=O)cc1	2.2	-1.2%	.	.	1.8	18.3	.
Cc1cccc(COc2ccc(S(=O)(=O)N3CCOCC3)cc2[N+](=O)[O-])c1	30.9	1.3%	.	.	0.5	11.4	-2.2%
S=C(N/N=C/c1cccs1)NC1CC2CCC1C2 (configuration not stated)	31.3	7.0%	0.8	22.6%	0.2	-4.7	.
O=C(c1cccc(C(=O)N2CCc3ccccc32)n1)N1CCc2ccccc21	26.3	0.6%	4.5	-9.5%	-1.1	-2.2	2.3%

Source: PubChem BioAssay
